HCMV UL50-53 inh = inhibitors of HCMV UL50-UL53 nuclear egress complex interaction. HTRF UL50-UL53 interaction, normalized percent inhibition. inhibition, % (concentration not given with the values). hit rate 0.15% among 190,000. AID 1918969;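 active = both replicates at 50% or more, plus weaker picks with an unusually low signal ratio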;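 also: stock transfer was 100 nL into about 20 µL; 0% = negative control wells and 100% = wells with untagged competitor protein; inactives centre near -12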
GIV-Gai inh = blocks GIV peptide binding to rat Galpha-i3. Galpha-i3/FITC-GIV peptide fluorescence polarization, 90 min; active compounds read low; scaled: aluminum fluoride 0%, vehicle 100%. hit rate 0.42% among 210,000. percent of control (FP), % (test concentration not listed);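 active = replicate mean at 85% of control or lower, very high polarization wells dropped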;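 also: lower values mean more displacement of the GIV peptide from Galpha-i3; wells of about 15 µL received 100 nL stock; the first replicate is given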
Target sequence (P08753 whole entry, looked up): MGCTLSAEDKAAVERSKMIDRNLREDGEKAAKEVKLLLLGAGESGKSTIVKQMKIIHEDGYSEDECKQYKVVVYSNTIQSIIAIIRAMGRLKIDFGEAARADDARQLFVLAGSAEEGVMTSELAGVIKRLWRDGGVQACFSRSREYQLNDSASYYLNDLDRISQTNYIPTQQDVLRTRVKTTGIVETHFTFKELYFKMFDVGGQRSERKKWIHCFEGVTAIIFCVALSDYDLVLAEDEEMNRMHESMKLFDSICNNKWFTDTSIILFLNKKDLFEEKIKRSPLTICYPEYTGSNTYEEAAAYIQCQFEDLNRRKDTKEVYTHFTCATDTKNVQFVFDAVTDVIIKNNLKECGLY
Sa growth 42C = inhibitors of Staphylococcus aureus growth at 42 °C; AID 720641; relative growth, % (test concentration not listed); S. aureus RN4220 growth, OD600, 20 h; active compounds read low; hit rate 0.53% among 170,000;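 active = growth at 42 °C up to 50% and 20 or more points under that at 30 °C, or under 10% at both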;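 also: 300 nL library stock went into each well; scaled to the means of positive and negative controls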
Sa growth 42C second temp = second read-out of Sa growth 42C, no call of its own (marks repeat the call); relative growth, %; measured here: growth at 30 °C;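 optical density after 20 h as mean of two plates; 100% = untreated growth and lower means inhibition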
* marks the source's active call; other numbers are inactive results; & = joins results of further samples. Compounds as they come; any-hit rate near 0.8%.

Screening Cc1nnc2ccc(N3CCN(C(=O)c4ccccc4)CC3)nn12 returned HCMV UL50-53 inh 6, GIV-Gai inh 103, Sa growth 42C 95 and Sa growth 42C second temp 89.
For CC(Oc1ccc(OCc2ccccc2)cc1)C(=O)O (stereo not drawn) the results were HCMV UL50-53 inh -4 and GIV-Gai inh 104.
Screening COc1ccc(-c2noc(CCC(=O)NCCN3CCN(c4ccccc4F)CC3)n2)cc1 returned GIV-Gai inh 100, Sa growth 42C 120 and Sa growth 42C second temp 83.
For CC(C)c1ccc(NC(=O)Cn2cc(S(=O)(=O)N3CCN(c4ccccc4F)CC3)c3ccccc3c2=O)cc1 the results were HCMV UL50-53 inh -11, GIV-Gai inh 104, Sa growth 42C 96 and Sa growth 42C second temp 90.
For CC(=O)Oc1cc(OC(C)=O)cc(OC(C)=O)c1 the results were HCMV UL50-53 inh -5, Sa growth 42C 84 and Sa growth 42C second temp 92.
For CC(C)(C)C1CCC2(CC1)NC(CO)(CO)CO2 (stereo not drawn) the results were HCMV UL50-53 inh -12, GIV-Gai inh 99, Sa growth 42C 103 and Sa growth 42C second temp 86.
For O=C(Nc1ccc(Br)cc1)C1CCN(c2ncccn2)CC1 the results were HCMV UL50-53 inh -26, GIV-Gai inh 98, Sa growth 42C 94 and Sa growth 42C second temp 89.
For COc1ccc(Cl)cc1NC(=O)c1cc(S(=O)(=O)N2CCc3ccccc32)cn1C the results were HCMV UL50-53 inh -13, GIV-Gai inh 101, Sa growth 42C 108 and Sa growth 42C second temp 86.
COc1ccc(C)cc1N(C)C(=O)c1c2c(nc3ccccc13)C(=O)N(C1CCCCC1)C2 was read as GIV-Gai inh 101, Sa growth 42C 81 and Sa growth 42C second temp 88.
For Cn1c(C(F)(F)F)nc2c(=O)oc3ccccc3c21 the results were GIV-Gai inh 107, Sa growth 42C 95 and Sa growth 42C second temp 87.
Screening CCN1C(=O)c2ccccc2S(=O)c2ccc(C(=O)NCc3ccccn3)cc21 (stereo not drawn) returned HCMV UL50-53 inh 4, GIV-Gai inh 92, Sa growth 42C 99 and Sa growth 42C second temp 96.
COc1ccc(C(=O)NCC(c2cccnc2)N2CCc3ccccc32)cc1 (stereo not drawn) was read as HCMV UL50-53 inh 0, GIV-Gai inh 107, Sa growth 42C 79 and Sa growth 42C second temp 87.
`COc1cc(/C=C2/N=C(c3ccccc3)NC2=O)cc(OC)c1OC` gave HCMV UL50-53 inh 28, GIV-Gai inh 99, Sa growth 42C 101 and Sa growth 42C second temp 86.
Screening Cc1ccc(S(=O)(=O)NC(=O)NCC2CCN(S(=O)(=O)c3ccccc3)CC2)cc1 returned HCMV UL50-53 inh -24, GIV-Gai inh 105, Sa growth 42C 95 and Sa growth 42C second temp 86.
`CC(c1ccccc1)n1cc2c(c1-c1ccccc1Br)c(=O)n(C)c(=O)n2C` (stereo not drawn) gave HCMV UL50-53 inh -27, GIV-Gai inh 104, Sa growth 42C 84 and Sa growth 42C second temp 57.
`Cc1c(C(=O)c2ccc(F)cc2)oc2ccccc12` gave HCMV UL50-53 inh -4 and GIV-Gai inh 108.
For CCCCc1nnc2sc(-c3ccc(C)nc3)nn12 the results were HCMV UL50-53 inh -8 and GIV-Gai inh 109.
Screening CCOC(=O)c1cccc(NC(=O)C2CCN(S(=O)(=O)c3ccc4c(c3)oc(=O)n4C)CC2)c1 returned HCMV UL50-53 inh -36, GIV-Gai inh 103, Sa growth 42C 107 and Sa growth 42C second temp 87.
COc1ccc(Br)cc1CNC(=O)CCCn1c(=O)c2cccn2c2ccccc21 was read as HCMV UL50-53 inh -9, GIV-Gai inh 97, Sa growth 42C 106 and Sa growth 42C second temp 67.
C(=N\Nc1nc(-c2ccc3c(c2)OCCO3)cs1)/c1ccc2c(c1)OCO2 was read as HCMV UL50-53 inh -40, GIV-Gai inh 108, Sa growth 42C 100 and Sa growth 42C second temp 62.
Screening COc1ccc(-c2c(C#N)c(N)nc3sc(C(=O)c4ccccc4)c(N)c23)cc1OC returned HCMV UL50-53 inh -33 and GIV-Gai inh 120.
For Cc1nn(C)c2c1c(C(F)(F)F)cc(=O)n2Cc1cccc(Br)c1 the results were GIV-Gai inh 97, Sa growth 42C 82 and Sa growth 42C second temp 96.
CCOC(=O)c1noc2ncnc(N3CCN(c4cccc(Cl)c4)CC3)c12 was read as GIV-Gai inh 104, Sa growth 42C 103 and Sa growth 42C second temp 82.
For COc1cccc(C(=O)NC(=O)Nc2ccc(-c3cc(C(F)(F)F)nn3-c3ccccc3)cc2)c1 the results were HCMV UL50-53 inh 19, GIV-Gai inh 100, Sa growth 42C 100 and Sa growth 42C second temp 101.
For CCOc1ccc(-c2nc(-c3ccccc3)c(-c3ccccc3)[nH]2)cc1OCC the results were HCMV UL50-53 inh 7, GIV-Gai inh 104, Sa growth 42C 103 and Sa growth 42C second temp 96.
`O=C(NCCc1ccc(F)cc1)C(=O)NCC(c1ccco1)S(=O)(=O)c1ccccc1` (stereo not drawn) gave GIV-Gai inh 104, Sa growth 42C 123 and Sa growth 42C second temp 85.
For CCn1c(=O)c(C(C)Nc2ccco2)c(O)c2ccccc21 (stereo not drawn) the results were HCMV UL50-53 inh -1, Sa growth 42C 94 and Sa growth 42C second temp 82.
Cc1cccc(NC(=O)N2CCC(N3CCN(Cc4ccccc4)C(=O)C3=O)CC2)c1C was read as GIV-Gai inh 96, Sa growth 42C 115 and Sa growth 42C second temp 90.
CCCn1cnc2nc(CSc3ccccc3NC(=O)C(C)Oc3ccccc3)cc(=O)n21 (stereo not drawn) was read as HCMV UL50-53 inh -36 and GIV-Gai inh 102.
`CCc1ccc(C(=O)c2cn(CC(=O)Nc3ccc4c(c3)OCO4)c3ccc(F)cc3c2=O)cc1` gave HCMV UL50-53 inh -20, GIV-Gai inh 102, Sa growth 42C 90 and Sa growth 42C second temp 76.
`FC(F)(F)C(Oc1nc(NC2CCCCC2)nc(N2CCOCC2)n1)C(F)(F)F` gave HCMV UL50-53 inh -4 and GIV-Gai inh 102.
`CCN1CCCC1CNC(=O)c1sc2ncnc(N3CCN(c4ccc(OC)cc4)CC3)c2c1C` (stereo not drawn) gave HCMV UL50-53 inh -51 and GIV-Gai inh 107.
Screening CCn1c(SCC(=O)OC)nnc1-c1ccco1 returned HCMV UL50-53 inh -30, GIV-Gai inh 99, Sa growth 42C 91 and Sa growth 42C second temp 79.
Screening O=C1C2C3C=CC(C3)C2C(=O)N1Cc1ccccc1 (stereo not drawn) returned HCMV UL50-53 inh -9, GIV-Gai inh 104, Sa growth 42C 75 and Sa growth 42C second temp 111.
Screening N#CC(C#N)=C1NC2=C(Cc3ccccc32)C(c2cccs2)=C1C#N returned HCMV UL50-53 inh -56, GIV-Gai inh 107, Sa growth 42C 93 and Sa growth 42C second temp 85.
`COc1ccccc1N(C)S(=O)(=O)c1ccc(C(=O)Nc2ccccc2N2CCN(C)CC2)cc1` gave HCMV UL50-53 inh 1, Sa growth 42C 109 and Sa growth 42C second temp 94.
Screening COc1cccc(CNC(=O)Cn2ncc3c4ccccc4n(Cc4ccccc4)c3c2=O)c1 returned HCMV UL50-53 inh -22, GIV-Gai inh 109, Sa growth 42C 103 and Sa growth 42C second temp 91.
For O=C1O[C@@H](CO)[C@H](O)[C@@H](O)[C@@H]1O the results were HCMV UL50-53 inh -41, Sa growth 42C 85 and Sa growth 42C second temp 88.
`CCCC(=O)N(Cc1nc2nc(C)cc(=O)n2[nH]1)c1ccccc1` gave HCMV UL50-53 inh -35 and GIV-Gai inh 106.
Nc1noc(-c2ccccc2)n1 was read as HCMV UL50-53 inh 6, Sa growth 42C 112 and Sa growth 42C second temp 94.

Three records drawn at random from the list so far:
For COc1cccc(C(=O)NC(=O)Nc2ccc(-c3cc(C(F)(F)F)nn3-c3ccccc3)cc2)c1 the results were HCMV UL50-53 inh 19, GIV-Gai inh 100, Sa growth 42C 100 and Sa growth 42C second temp 101.
`CCc1ccc(C(=O)c2cn(CC(=O)Nc3ccc4c(c3)OCO4)c3ccc(F)cc3c2=O)cc1` gave HCMV UL50-53 inh -20, GIV-Gai inh 102, Sa growth 42C 90 and Sa growth 42C second temp 76.
For CCOc1ccc(-c2nc(-c3ccccc3)c(-c3ccccc3)[nH]2)cc1OCC the results were HCMV UL50-53 inh 7, GIV-Gai inh 104, Sa growth 42C 103 and Sa growth 42C second temp 96.

Further structures.
`O=C(NCCCc1nc2ccccc2n1Cc1ccccc1F)c1ccco1` gave HCMV UL50-53 inh 2, GIV-Gai inh 102, Sa growth 42C 109 and Sa growth 42C second temp 88.
Cc1ccccc1N1CC(c2nc3ccccc3n2CCC2CCCCC2)CC1=O (stereo not drawn) was read as HCMV UL50-53 inh -16, GIV-Gai inh 98, Sa growth 42C 49 and Sa growth 42C second temp 17.
For COC(=O)c1ccccc1NC(=O)CC1(c2ccc(Cl)cc2)C(=O)c2ccccc2C1=O the results were HCMV UL50-53 inh -6, Sa growth 42C 108 and Sa growth 42C second temp 107.
`CCc1nnc(Cn2nnc3c(=O)[nH]c(C(=O)Nc4ccc(C)cc4)nc32)s1` gave GIV-Gai inh 104, Sa growth 42C 83 and Sa growth 42C second temp 83.
For O=C(NC(NC1CCS(=O)(=O)C1)C(=O)c1ccc(Cl)cc1)c1ccco1 (stereo not drawn) the results were HCMV UL50-53 inh -2, GIV-Gai inh 103, Sa growth 42C 96 and Sa growth 42C second temp 74.
For COC(=O)C1CCCN1C(=O)C12CC3CC(CC(C3)C1)C2 (stereo not drawn) the results were HCMV UL50-53 inh 0, Sa growth 42C 111 and Sa growth 42C second temp 93.
For CCCc1cc(C(=O)N(C2CCCCC2)C2CCCCC2)no1 the results were GIV-Gai inh 99, Sa growth 42C 117 and Sa growth 42C second temp 92.
For C/C=C/C(=O)OCc1cc(=O)oc2cc(NC(=O)OCC)ccc12 the results were HCMV UL50-53 inh -24, Sa growth 42C 95 and Sa growth 42C second temp 89.
`CCOC(=O)c1sc(NC(=O)CSc2nc(C)nc3c2CCC3)nc1C` gave HCMV UL50-53 inh 12 and GIV-Gai inh 105.
Screening CCc1ccc(C2C(C#N)=C(N)Oc3n[nH]c(-c4cc(OC)c(OC)c(OC)c4)c32)cc1 (stereo not drawn) returned HCMV UL50-53 inh -22 and GIV-Gai inh 99.
`O=c1[nH]nc(Sc2ccc(C(F)(F)F)cn2)n1C1CCCCC1` gave HCMV UL50-53 inh 7, GIV-Gai inh 105, Sa growth 42C 112 and Sa growth 42C second temp 94.
CC(C)CCNS(=O)(=O)c1cccc2nsnc12 was read as HCMV UL50-53 inh -109, GIV-Gai inh 99, Sa growth 42C 101 and Sa growth 42C second temp 88.
CCOC(=O)c1ccccc1NC(=O)CSc1ncccn1 was read as HCMV UL50-53 inh -8, GIV-Gai inh 104, Sa growth 42C 111 and Sa growth 42C second temp 88.
Cc1sc2nc(SCC(=O)N(CCO)CCO)nc(N)c2c1C was read as HCMV UL50-53 inh -11, GIV-Gai inh 98, Sa growth 42C 103 and Sa growth 42C second temp 66.
Screening Cc1ccc(C)c(OCCSc2nc3ccccc3n2CC(=O)N2CCOCC2)c1 returned HCMV UL50-53 inh -34, GIV-Gai inh 100, Sa growth 42C 106 and Sa growth 42C second temp 90.
CC(C)CCNC(=O)C1CCC(Cn2c(=O)c3sccc3n(CC(=O)NC(C)C)c2=O)CC1 (stereo not drawn) was read as HCMV UL50-53 inh -27, GIV-Gai inh 100&101, Sa growth 42C 99 and Sa growth 42C second temp 89.
COc1cc(OC)cc(C(=O)Nc2ccnn2C2CCCCC2)c1 was read as HCMV UL50-53 inh 0, Sa growth 42C 105 and Sa growth 42C second temp 84.
For Cc1ccc(C(=O)Nc2nnc(SCc3cc(=O)n4ccc(C)cc4n3)s2)cc1 the results were GIV-Gai inh 111, Sa growth 42C 102 and Sa growth 42C second temp 94.
Screening CCCCOc1ccc(-c2cc3c4n[nH]c(=S)n4ccn3n2)cc1 returned HCMV UL50-53 inh -7 and GIV-Gai inh 105.
For CCc1nn(CC(=O)N2CCc3ccccc32)c(=O)c2cccn12 the results were HCMV UL50-53 inh -8, GIV-Gai inh 104, Sa growth 42C 104 and Sa growth 42C second temp 90.
For Nc1nnc2c([nH]c3ccccc32)c1-c1ccccc1 the results were HCMV UL50-53 inh -61, GIV-Gai inh 125, Sa growth 42C 83 and Sa growth 42C second temp 59.
`CCOC(=O)N1CCC(N2Cc3cccc(C(=O)NC4CCN(Cc5ccccc5)CC4)c3C2=O)CC1` gave HCMV UL50-53 inh -9, GIV-Gai inh 103, Sa growth 42C 93 and Sa growth 42C second temp 87.
Screening O=C(NCCCn1c(C(F)(F)F)nc2cccnc21)Nc1ccc(Br)cc1 returned HCMV UL50-53 inh -10 and GIV-Gai inh 100.
For CSc1ccc(CCNC(=O)c2ccc3c(=O)n4c(nc3c2)CCCCC4)cc1 the results were HCMV UL50-53 inh 5, GIV-Gai inh 101, Sa growth 42C 107 and Sa growth 42C second temp 86.
For CC1S/C(=N\Nc2ccc(Cl)cc2)NC1=O (stereo not drawn) the results were HCMV UL50-53 inh -13, GIV-Gai inh 110, Sa growth 42C 90 and Sa growth 42C second temp 85.
`COc1cc(C2NC(=O)N(C)C3=C2C(=O)N(c2cccc(Cl)c2)C3)ccc1O` (stereo not drawn) gave HCMV UL50-53 inh -26, GIV-Gai inh 105, Sa growth 42C 93 and Sa growth 42C second temp 90.
CC(C)COc1ccc(Nc2ncnc3ccc(Br)cc23)cc1 was read as HCMV UL50-53 inh -9, GIV-Gai inh 102, Sa growth 42C 100 and Sa growth 42C second temp 98.
